# Screens as filed in PubChem.
# Calb FLC = C. albicans growth inhibition with fluconazole, primary screen, CaCi-2 strain, Alamar Blue fluorescence; C. albicans CaCi-2 (fluconazole-resistant clinical isolate) + fluconazole, 48 h; growth inhibition, % (concentration not given with the values); 300,000 compounds, 0.57% hits; AID 1979, 2009;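 active = most replicates above 75%; inconclusive = exactly half above 75%; inactive = most below 75%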;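 note: all wells also contain fluconazole at 8 µg/ml as a sub-toxic cotreatment; 0% = median of DMSO wells and 100% = median of geldanamycin control wells; wells of about 8 µL received 7.5 nL stock; the first replicate is given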
# T cruzi inh = inhibitors of intracellular T. cruzi growth, primary screen, luminescence, NIH3T3 host cells. T. cruzi beta-gal in NIH3T3, 90 h. AID 1885, 2009. 300,000 compounds, 1.4% hits. inhibition, % (test concentration not listed);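 active = mean inhibition across valid replicates above about 55%, limit read from the data; inconclusive = mean below that limit but half or more replicates reach it; inactive = mean below it, under half of replicates reach it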;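 note: signal also drops with host cell toxicity which is not excluded here; 0% = plate median of DMSO wells and 100% = zero luminescence signal; higher percent means less beta-gal luminescence so fewer parasites; stock transfer was 50 nL into about 50 µL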
# UCH37 inh = inhibitors of human UCH37 deubiquitinase, primary screen, biochemical, Ub-AMC cleavage, fluorescence; purified proteasome/UCH37; 330,000 compounds, 0.33% hits; AID 588478, 2011; inhibition, % (test concentration not listed); Ubiquitin carboxyl-terminal hydrolase isozyme L5 (Homo sapiens), Q9Y5K5;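 active = mean of two replicates above 20%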;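 note: 0% = compound-free wells with enzyme and 100% = wells lacking proteasome; stock transfer was 100 nL into about 20 µL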
#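 Test system – human UCH37 enzyme supplied as purified proteasome complex · Incubation – 30 min preincubation with enzyme, 25 min cleavage at room temperature · Detection – AMC fluorescence from Ub-AMC cleavage, excitation 355 nm, emission 460 nm · Benchmarks – no-proteasome wells (full inhibition) and compound-free wells (no inhibition)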
# A1 inh = caspase 3/7 activation in MEF A1-2A-BIM cells, primary screen, A1 inhibitor project, cell-based, luminescence, HTS | Caspase-Glo 3/7 luminescence, 3 h; percent of clofoctol response, vehicle zero | caspase activation, % (concentration not given with the values) | 330,000 compounds, 0.066% hits;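 active = over half of replicate activation scores above 10%, or exactly half above 10 with the replicate mean above 10; inconclusive = replicate mean below 10 yet half the replicates above 10; inactive = over half of replicates below 10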;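 note: wells of about 30 µL received 50 nL stock; many hits fall short of the cut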
# LANA-H2A inh = blockers of LANA interaction with H2A/H2B – biochemical, FP readout, HTS, primary screen; cell-free LANA-H2A/H2B peptide, fluorescence polarization; Protein LANA1 (Human herpesvirus 8 type P (isolate GK18)), Q9QR71; inhibition, % (test concentration not listed); 320,000 compounds, 0.6% hits; in the data active = inhibition mostly above about 10%, no sharp cut-off; inactive = mostly below about 6.7%;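 note: stock transfer was 7.5 nL into about 10 µL; 0% = median of vehicle wells and 100% = median of positive control wells; one replicate is shown; the record names a cut of 25% in any replicate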
# Target sequence (Q9QR71 whole entry, looked up): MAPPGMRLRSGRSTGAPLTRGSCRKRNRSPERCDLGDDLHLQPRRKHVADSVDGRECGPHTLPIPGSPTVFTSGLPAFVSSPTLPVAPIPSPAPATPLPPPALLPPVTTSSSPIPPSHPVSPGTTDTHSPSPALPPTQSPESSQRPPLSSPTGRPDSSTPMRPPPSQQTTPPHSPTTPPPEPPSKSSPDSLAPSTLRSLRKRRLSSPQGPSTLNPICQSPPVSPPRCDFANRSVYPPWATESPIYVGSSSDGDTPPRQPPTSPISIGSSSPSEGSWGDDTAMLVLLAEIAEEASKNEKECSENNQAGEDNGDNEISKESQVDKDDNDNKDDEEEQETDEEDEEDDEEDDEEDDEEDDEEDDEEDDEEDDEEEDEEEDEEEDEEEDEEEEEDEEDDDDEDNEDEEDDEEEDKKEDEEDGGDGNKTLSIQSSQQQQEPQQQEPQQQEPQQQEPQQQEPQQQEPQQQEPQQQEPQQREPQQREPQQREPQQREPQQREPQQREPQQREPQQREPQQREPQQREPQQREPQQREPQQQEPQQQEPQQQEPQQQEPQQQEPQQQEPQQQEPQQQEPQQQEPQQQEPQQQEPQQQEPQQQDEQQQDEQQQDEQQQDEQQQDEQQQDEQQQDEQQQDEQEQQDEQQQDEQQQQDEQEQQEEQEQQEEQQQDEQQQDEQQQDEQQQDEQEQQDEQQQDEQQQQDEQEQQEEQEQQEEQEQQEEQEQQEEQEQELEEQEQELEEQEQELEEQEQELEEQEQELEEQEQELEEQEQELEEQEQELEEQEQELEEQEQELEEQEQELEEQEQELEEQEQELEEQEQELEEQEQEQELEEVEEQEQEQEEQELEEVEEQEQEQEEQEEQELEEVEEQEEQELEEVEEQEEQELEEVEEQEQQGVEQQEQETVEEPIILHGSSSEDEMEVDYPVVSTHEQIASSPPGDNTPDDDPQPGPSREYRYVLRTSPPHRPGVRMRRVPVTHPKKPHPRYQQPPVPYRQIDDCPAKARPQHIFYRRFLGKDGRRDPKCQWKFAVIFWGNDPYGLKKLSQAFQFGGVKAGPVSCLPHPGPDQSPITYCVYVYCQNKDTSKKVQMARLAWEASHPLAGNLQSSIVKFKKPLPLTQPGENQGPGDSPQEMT
# RanGTP-Impb inh = inhibitors of RanGTP-importin-beta interaction, primary screen, biochemical, FRET, CFP-Ran, YFP-importin-beta, homogeneous; cell-free CFP-Ran/YFP-importin-beta FRET ratio; Ran GTPase (GTP-bound) - importin-beta complex; 300,000 compounds, 1.1% hits; inhibition, % (no concentration beside the values); AID 2216, 2009;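 active = most replicates above 15%; inconclusive = exactly half above 15%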;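 note: 0% = DMSO wells and 100% = Ran loaded with GDP instead of GTP; wells of about 40 µL received 100 nL stock; the first replicate is given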
# Beta2AR agonist = beta2AR agonists driving receptor internalization, primary screen, cell-based, FAP fluorogen, flow cytometry. Beta-2 adrenergic receptor (Homo sapiens), P07550. Am2.2-beta2AR cells; reference of the scale not given here. response, % (no concentration beside the values). 340,000 compounds, 0.43% hits;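 active = response above a set limit, near 3 SD of response in nonfluorescent compounds, cut at about 42% in these data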;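 note: stock transfer was 100 nL into about 11 µL; a reference agonist was the positive control; negative values mostly stem from fluorescent compounds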
# Beta apoptosis = inhibitors of cytokine-induced beta cell apoptosis, primary screen, luminescence. INS-1E cytokine-induced death, ATP luminescence, 48 h; percent of positive-control rescue, neutral wells zero. protection from apoptosis, % (test concentration not listed). 300,000 compounds, 0.8% hits;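 active = all replicates at 75% or more, or half of them and the mean; inconclusive = half reach 75% but not the mean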;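 note: 0% = cytokine-treated negative control wells and 100% = positive control rescue; higher means more ATP so stronger rescue from cytokine killing; wells of about 40 µL received 100 nL stock; the first replicate is given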
# Active calls of the source: *; ? = inconclusive; nt = not tested or not shown.
SMILES,Calb FLC,T cruzi inh,UCH37 inh,A1 inh,LANA-H2A inh,RanGTP-Impb inh,Beta2AR agonist,Beta apoptosis
NS(=O)(=O)c1ccc(NC(=S)NC(=O)c2ccco2)cc1,-5,-2,1.3,-0.1,0.4,-2.1,-7,-4
OCC[C@@H]1C[C@H](O)[C@@H](O)[C@@]2(CCCc3ccccc3O2)O1,-2,0,4.6,-0.2,2.9,4.3,3,-1
CC(C)(C)OC(=O)N1CCC(c2c(C(=O)N3CCN(C(=O)c4ccco4)CC3)cnn2-c2ccc(F)cc2F)CC1,3,-7,4.0,1.4,-4.3,2.2,-6,-4
CC(C)c1ccc(C(=O)OCC(=O)NC2CCCC2)cc1,10,-8,2.9,0.5,1.2,-3.7,3,nt
Cc1nnsc1C(=O)N1CCC(C(=O)c2ccccc2)CC1,0,-6,5.4,-0.3,-2.0,-1.7,6,2
Nc1ncnc(N2CCOCC2)c1N,-6,-1,-7.4,0.0,2.9,?,-1,3
Cc1cc(C)n(-c2nc3ccccc3c(=O)n2OC2CCCCC2)n1,0,-13,3.4,-0.4,-7.4,0.0,4,-5
CC(C)=NOC(=O)c1ccc(-c2ccccc2)cc1,2,-8,2.5,0.4,-3.6,0.2,2,-6
COc1ccc(NC(=O)CN(C)S(=O)(=O)c2cnc[nH]2)cc1,-2,-9,1.6,-0.9,3.4,2.1,0,-4
O=[N+]([O-])c1ccc(N2CCN(S(=O)(=O)c3ccccc3)CC2)cc1NCC1CCCO1 (stereo not given),-4,18,6.9,0.1,-5.8,-0.1,19,5
Cc1c(-c2nnnn2-c2ccc(F)cc2)cnc2cc3c(cc12)OCO3,-7,13,-4.3,1.4,2.3,2.9,3,-21
O=C(CSc1n[nH]c(=O)n1-c1cccnc1)Nc1ccccc1,2,-8,0.1,-0.6,-0.4,2.4,-5,4
COc1ccc(C)cc1NC(=O)CN1CCN(S(=O)(=O)c2ccc(C(C)C)cc2)CC1,-1,62*,2.7,0.4,0.0,-2.9,3,nt
O=C(O)c1cccc(N/N=C/c2cn(-c3ccccc3)nc2-c2cccs2)c1,21,3,nt,1.1,-4.9,?,-7,-8
COc1cccc(C2c3[nH]c4ccccc4c3CCN2Cc2cnn(C)c2)c1 (stereo not given),-1,0,-7.2,-1.0,3.6,5.1,4,-4
Cc1cccc(Cn2c(N3CCN(CCO)CC3)nc3c2c(=O)[nH]c(=O)n3C)c1,-16,-2,2.7,-0.1,10,-0.2,2,0
Nn1c(SCC(=O)NC(=O)NC2CCCC2)nnc1-c1ccccc1F,2,5,0.9,0.7,3.3,7.4,-9,-7
O=C(O)c1ccc(CNCc2cccc(Cl)c2Cl)cc1,-3,0,-0.2,-1.4,nt,1.8,-14,-8
O=C(CN1CCN(Cc2ccccc2)CC1)N/N=C/C=C/c1ccccc1[N+](=O)[O-],2,1,nt,0.2,-5.5,-1.8,-4,4
COc1ccc(S(=O)(=O)N2CCOCC2)cc1NC(=O)c1ccncc1,nt,nt,-1.8,-0.6,-2.7,nt,-3,2
O=c1cc(O)c2c(=O)n(-c3ccccc3)c3c(c2o1)CCCCC3,-6,-4,-4.6,1.0,nt,4.1,6,-3
CCCN(CCC)CC(O)Cn1cc(/C=C/C(=O)c2cccs2)c2ccccc21 (stereo not given),5,?,-11,0.0,nt,1.8,3,-2
CCOc1ccc(-n2c(SCC(=O)NC3CCS(=O)(=O)C3)nnc2-c2cccnc2)cc1 (stereo not given),-5,-7,3.4,-0.4,nt,-1.7,1,-3
Cc1cc(Nc2c(C)n(C)n(-c3ccccc3)c2=O)n2c(nc3ccccc32)c1C#N,14,-13,1.2,1.0,-3.1,107*,2,nt
COc1ccc(C(CNC(=O)c2ccc(S(=O)(=O)N3CCCC3)cc2)N2CCOCC2)cc1 (stereo not given),1,-5,4.8,0.2,2.3,3.0,1,-2
CCOC(=O)C1(CCOc2ccccc2)CCN(Cc2ccc(OC)c(O)c2)CC1,51,7,6.4,-0.7,-1.0,5.4,3,nt
CC(=O)Nc1c2c(nn1-c1ccccc1)CS(=O)C2 (stereo not given),2,-1,3.4,1.2,1.5,5.0,-3,-17
CCOc1ccc(C(=O)NCC(=O)NCCOc2ccc(C)cc2)cc1,5,0,-1.1,-0.1,-5.3,?,11,nt
Cc1ccc2nc(C)cc(C(=O)OCC(=O)Nc3cccnc3Cl)c2c1,31,-9,-57,0.5,-0.8,0.1,-11,-9
CC(C)NCCCCOc1ccc(Br)cc1Cl,7,29,5.2,0.6,1.2,-3.8,4,-5
O=C(NCC1CC1)Nc1ccc(Cl)cc1,-10,5,1.7,-1.9,-2.8,10,-3,-4
CCOc1ccc(NC(=O)CSc2nnc(CCNC(=O)c3ccc(OC)cc3)n2CC)cc1,-11,-1,2.9,1.1,4.6,nt,8,2
NNc1nc2ccc(Cl)cc2s1,-32,25,-20,-3.2,nt,3.9,8,2
CC1(C)CC2CC(C)(CN2C(=O)COC(=O)c2ccc(Cl)cc2N)C1 (stereo not given),5,21,-8.2,0.5,1.3,0.9,-2,3
CN=C1CC(C)(C)CC(=O)/C1=C(/O)CCCN1C(=O)c2ccccc2C1=O,-14,9,nt,1.0,1.5,1.0,-5,4
CCOC(=O)c1ccc[n+](CC(=O)c2ccc(OC)cc2)c1,-22,-30,0.9,1.1,-9.9,6.7,-4,-6
O=C(O)c1cc(-c2ccc(/C=N/Nc3ccc([N+](=O)[O-])cn3)o2)ccc1Cl,?,14,nt,nt,nt,-23,2,nt
CC(=O)c1ccc(NC(=O)CSc2nc(N)c3cc4c(nc3n2)CCCC4)cc1,-10,-5,-8.1,-1.3,-0.9,2.1,0,nt
O=C(CN1CCOCC1)Nc1ccc([N+](=O)[O-])cc1Br,-1,-2,2.4,-0.1,-2.8,?,-18,8
C=CCn1c(SCC(=O)c2ccc(Cl)s2)nc2ccccc2c1=O,-9,5,1.2,-0.5,-2.9,-1.2,-3,2
Cc1nc(SCCO)c([N+](=O)[O-])[nH]1,17,-5,8.1,0.5,-7.6,-1.1,-1,-4
O=C(Nc1cc(-c2ccccc2)[nH]n1)c1ccccc1F,-10,7,4.8,-3.0,6.5,0.2,-1,5
C(=N\Nc1ncnc2sc3c(c12)CCC3)/c1cccs1,27,41,nt,-0.9,2.5,2.0,-11,96*
COc1ccc(CN2CCN(Cc3ccccc3C(F)(F)F)CC2)c(OC)c1,6,27,2.5,-0.1,2.2,-1.5,-6,-3
CN(C)CCNC(C(=O)Nc1cc(Cl)cc(Cl)c1)c1ccccc1 (stereo not given),-8,24,0.6,-0.7,2.3,-0.3,9,5
COc1cc(/C=C2\CCCc3c2nc2ccccc2c3C(=O)O)cc(Br)c1O,8,-4,4.4,0.4,-2.5,0.2,15,-4
COc1ccc(-c2cc(C(=O)N3CCCC3)c3ccccc3n2)cc1OC,-7,-1,-5.1,-0.6,-2.2,-1.5,-4,0
CCc1cc2c(NCc3ccco3)ncnc2s1,32,6,3.6,0.0,2.2,4.1,9,4
CCOc1cccc(C(=O)Nc2ccccc2C(=O)N2CCN(C)CC2)c1,-17,-14,1.3,-0.7,-2.2,5.6,-16,-2
O=C(C1CCN(c2ncnc3c2nc2n3CCCCC2)CC1)N1CCN(c2ccccc2F)CC1,-9,16,-1.4,0.2,1.8,0.9,-1,11
O=C(Nc1ccc(Cl)cc1)N1CCC(c2nc(-c3ccc(F)cc3)no2)CC1,-8,?,2.8,-0.2,2.0,2.9,1,12
Cc1cccc(C)c1NC(=S)N(Cc1ccco1)C1CCN(C(C)C)CC1,-11,1,4.1,-0.4,7.9,-0.9,-1,-3
CCN(CC)C(=O)CN1C(=O)C2CC=C(Cl)CC2C1=O (stereo not given),0,-15,nt,0.0,-2.7,0.2,1,-5
CCS(=O)(=O)N1CCC(C(=O)Oc2ccccc2)CC1,-1,-9,3.4,-0.7,2.1,3.8,-2,0
Cc1cc(C)c(C)c(S(=O)(=O)N2CCN(C(=O)CCc3nc4ccccc4c(=O)[nH]3)CC2)c1C,-4,-5,-0.1,-1.1,4.7,4.4,5,-6
O=c1oc2ccccc2c(NC2CCCCC2)c1NS(=O)(=O)c1ccc(F)c(Cl)c1,2,8,-2.9,-0.3,5.7,-0.7,7,5
CC(C)(C)c1ccc(C(=O)NC(=S)NCC2CCCO2)cc1 (stereo not given),4,16,-1.7,0.2,-1.5,-6.2,-10,-1
O=C(NCc1ccccc1)[C@H]1C[C@@H]1[C@H](NP(=O)(c1ccccc1)c1ccccc1)c1ccccc1,6,-22,1.7,1.8,1.2,-1.8,-8,nt
CS(=O)(=O)N(CC(=O)NC1CCCC1)c1ccc(Oc2ccccc2)cc1,-29,-7,4.0,0.5,-6.7,1.2,-29,-1
CCCCNC(=O)CCCCC(=O)N/N=C/c1ccccc1Cl,15,-12,nt,0.6,4.1,2.5,5,-4
# Carrying on:
SMILES,Calb FLC,T cruzi inh,UCH37 inh,A1 inh,LANA-H2A inh,RanGTP-Impb inh,Beta2AR agonist,Beta apoptosis
CCN1C(=O)OC2(CCCCC2)C1(C)O (stereo not given),nt,nt,4.3,-0.3,1.4,nt,nt,-6
CCOC(=O)c1cc(NC(=O)c2cc(C)on2)cc(C(=O)OCC)c1,7,-12,-0.6,-0.7,-1.8,nt,-5,2
CCN1CCN(c2ccc(S(=O)(=O)N3CCCCC3)cc2NC(=O)c2cccc(C)c2[N+](=O)[O-])CC1,-3,41,-0.9,0.2,-3.2,7.0,-1,nt
COc1ccc(CN2CCNC(=O)C2CC(=O)NCCN2CCCCC2=O)c(F)c1 (stereo not given),2,-13,0.7,-0.6,-10.0,4.5,6,-8
CC(C)C(=O)N1CCN(c2nc(-c3ccccc3)c3c(c2C#N)CC(C)(C)OC3)CC1,12,-9,-15,0.7,1.9,5.0,6,4
C/C(=N\NC(=O)c1ccc(O)cc1O)c1cccnc1,-25,-14,nt,2.1,-6.0,-0.1,2,5
Cc1onc(-c2c(Cl)cccc2Cl)c1C(=O)n1nnc2ccccc21,29,-29,nt,?,-3.6,0.6,nt,0
Cc1ccc2c3c([nH]c2c1)C(=O)CC(C)(C)S3,0,18,-12,0.1,-1.1,9.7,1,-4
Nc1c(-c2ccc(F)cc2)cnc2ncnn12,?,-20,-0.5,0.3,4.3,3.2,-2,-7
CCc1cc(=O)oc2cc(OCC(=O)NC3CC(C)(C)NC(C)(C)C3)ccc12,-12,3,-13,-0.1,-2.2,-2.1,-2,nt
COc1ccccc1N(C)S(=O)(=O)c1ccc(Cl)c(C(=O)NNC(=O)c2ccccc2O)c1,29,-11,2.0,0.9,-1.1,4.2,-8,-8
O=S(=O)(c1ccc(F)c(F)c1F)N1CCN(C(=S)Nc2ccccc2)CC1,-3,1,1.6,1.1,1.1,-0.4,-8,2
Cc1csc(NC(=O)/C=C/c2ccc3c(c2)OCO3)n1,6,-1,-12,-7.4,5.9,-6.5,4,4
